# Screens from PubChem BioAssay.
# Mtb betalactam – beta-lactam sensitization of Mtb H37Rv; M. tuberculosis H37Rv growth with meropenem, percent inhibition; hits of this screen are not shown here; inhibition, % at 25 µM; 330,000 tested, 0.27% active;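 active means about 74% or more and at least 40 points above the plate without the antibiotic, then above 30% in a dose series; inconclusive means first-round hits that could not be retested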;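 further: growth measured after seven days incubation then overnight dye step; 0% = bacteria only wells and 100% = bacteria with antibiotic; twin plates without the antibiotic show which effects depend on it; some results filed as inactive read as strong as hits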
# YopH inh – inhibitors of Yersinia enterocolitica YopH tyrosine phosphatase; fluorescence Ex485/Em525; 140,000 tested, 0.16% active; inhibition, %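 (about 10 µM by stock and volumes)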;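 active means inhibition of 50% or more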;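 further: controls were vehicle for no effect and minimum signal wells for full effect; inactives centre near -20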
# Arbovirus inh – antivirals against arbovirus infection | arbovirus infection cell-based antiviral screen | inhibition, % at 10 µM | 200,000 tested, 0.37% active | AID 1251;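 active means inhibition from about 30%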;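 further: bluetongue infection of BSR cells; cell survival read as ATP light after 72 h; 0% = infected wells without compound and 100% = uninfected wells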
# Mtb growth – M. tuberculosis H37Rv growth inhibitors, H37Rv strain (AID 1626); M. tuberculosis H37Rv growth inhibition; higher % means a stronger effect; inhibition, % at 10 µM; hits with a dose series show IC50 in µM; 220,000 tested, 0.95% active;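 active means confirmed in a dose series; inconclusive means inhibition above 80% but not taken into the dose series; inactive means below 80% or under 30% at every dose of the series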;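 further: bacteria incubated seven days before Alamar blue readout; 0% = bacteria only wells and 100% = bacteria with antibiotic wells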
# RecA intein inh – Mtb RecA intein splicing inhibition; AID 2221; cell-free RecA intein splicing, fluorescence; 290,000 tested, 0.75% active; inhibition, %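 (about 9 µM by stock and volumes)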; in the data active means inhibition above about 30%; inconclusive means no clear call, values can overlap the other calls;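 further: 0% = vehicle wells and 100% = reference inhibitor control wells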
# Target sequence (P9WHJ3 whole entry, looked up): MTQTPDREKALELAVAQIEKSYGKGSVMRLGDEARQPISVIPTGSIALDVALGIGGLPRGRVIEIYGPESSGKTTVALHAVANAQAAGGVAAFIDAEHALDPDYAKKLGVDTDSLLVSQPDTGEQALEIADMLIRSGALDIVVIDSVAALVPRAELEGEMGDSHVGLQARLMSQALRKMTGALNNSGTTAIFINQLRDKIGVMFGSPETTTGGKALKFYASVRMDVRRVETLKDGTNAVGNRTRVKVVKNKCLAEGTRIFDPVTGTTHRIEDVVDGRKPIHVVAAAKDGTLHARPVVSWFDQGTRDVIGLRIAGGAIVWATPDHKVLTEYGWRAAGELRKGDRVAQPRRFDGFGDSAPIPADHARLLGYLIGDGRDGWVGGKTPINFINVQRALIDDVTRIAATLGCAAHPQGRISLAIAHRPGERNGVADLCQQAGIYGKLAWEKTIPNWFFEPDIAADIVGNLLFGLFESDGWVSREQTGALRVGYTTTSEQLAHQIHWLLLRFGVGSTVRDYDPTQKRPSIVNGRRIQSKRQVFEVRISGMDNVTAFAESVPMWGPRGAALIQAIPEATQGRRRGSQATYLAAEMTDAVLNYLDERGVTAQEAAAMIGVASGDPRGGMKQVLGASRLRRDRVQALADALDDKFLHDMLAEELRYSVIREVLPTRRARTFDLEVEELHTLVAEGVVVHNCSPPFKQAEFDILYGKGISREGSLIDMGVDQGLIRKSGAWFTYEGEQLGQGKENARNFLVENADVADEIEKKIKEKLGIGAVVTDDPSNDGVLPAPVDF
# Arbovirus inh repeat – further read-out of Arbovirus inh, marked with its call; inhibition, %; measured here: 10K subset replicate screen; many hits read low in the repeat;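 first of two repeat runs on a subset; 0% = infected and 100% = uninfected wells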
# Numbers without * were called inactive; ? = inconclusive; . = not tested or not shown. The list is partial, so the mix of outcomes need not match the whole.
SMILES,Mtb betalactam,YopH inh,Arbovirus inh,Mtb growth,RecA intein inh,others
COc1ccc(-c2[nH]ncc2/C=C(\C#N)C(=O)NC2CC2)cc1,-5,-14,-3,-9%,.,
COc1ccc(Cn2nnnc2C(c2cccs2)N2CCSCC2)cc1 (configuration not stated),3,-10,-3,6%,.,
Cc1ccc(CNc2cnccn2)s1,0,.,.,.,-2.5,
O=C(OCc1ccccc1F)c1cc([N+](=O)[O-])ccc1N1CCOCC1,5,.,.,.,4.2,
COc1ccc(CN2CCN(C(=O)CC(C)C)CC2)c2ccccc12,-6,7,4,.,6.7,
Cc1ccccc1C1c2[nH]c3ccccc3c2C[C@H]2C(=O)N(C3CC3)CC(=O)N12 (some centres not stated),-7,.,.,.,4.0,
CCOC(=O)c1[nH]c(C)c(/C=N/O)c1C,53,-43,3,1%,-0.1,
COCCCn1c(=O)c2sccc2n2c(CCCC(=O)NCC3CCCO3)nnc12 (configuration not stated),1,.,.,.,1.6,
CCOC(=O)c1nnn(CC(=O)NC(=O)Nc2cccc(CC)c2)c1C(=O)OCC,-1,.,5,2%,-0.7,
C#CCOC(=O)c1cc(Cl)c(=O)n(Cc2ccc(Cl)cc2Cl)c1,3,.,.,.,-2.2,
CCOc1ccccc1C1NC(=O)NC(C)=C1C(=O)OCc1ccco1 (configuration not stated),-2,-5,3,21%,.,
Cc1ccc(S(=O)(=O)CCC(=O)Nc2nc(-c3cccnc3)cs2)cc1,6,.,.,.,-1.6,
CCc1ccc(N2CC(C(=O)Nc3ccc(S(=O)(=O)N4CCOCC4)cc3)CC2=O)cc1 (configuration not stated),-6,.,.,.,-0.3,
CN1C(=O)N(C)C(NC(=O)Nc2ccccc2)C1NC(=O)Nc1ccccc1 (configuration not stated),12,-3,0,7%,-0.2,
CCC(C)NC(=O)C(NS(=O)(=O)c1cccc2nsnc12)c1ccccc1 (configuration not stated),2,-61,1,.,-1.4,
CC(C)OC(=O)/C(C#N)=C/c1ccc(-c2ccc(SC(F)F)cc2)o1,95,-17,3,?,-34,
CCn1nc(C)c(NC(=O)/C=C/c2ccc(OC)c(COc3ccc(Br)cc3)c2)c1C,-6,-4,-10,0%,0.0,
Cc1c(C(=O)Nc2ccncc2)oc2ccccc12,-12,-23,1,-2%,.,
CN(CC(=O)Nc1ccccc1C(F)(F)F)C(=O)c1cc([N+](=O)[O-])ccc1N1CCOCC1,-4,.,.,.,-3.1,
Brc1c(CSc2nncn2-c2ccccc2)nc2sccn12,-8,2,1,1%,0.8,
CCCC(=O)Nc1ccc(C(=O)NNC(=S)NC(=O)c2cccs2)cc1,66,-35,-14,26%,-0.1,
COc1ccc(/C(O)=C2/C(=O)C(=O)N(CCCN(C)C)C2c2ccccc2)cc1Cl (configuration not stated),.,-9,13,1%,.,
Cc1cccc(NC(=S)NC2CCCC2)c1,0,1,6,7%,5.8,
C=CCn1c(SCC(=O)N2CC(=O)Nc3ccccc32)nc2scc(-c3ccccc3)c2c1=O,18,-26,-25,-7%,3.8,
CC(=O)NS(=O)(=O)c1ccc(NC(=O)c2cccc3ccccc23)cc1,-7,.,.,.,8.0,
Cc1ccc(S(=O)(=O)N2CCN(S(=O)(=O)c3ccccc3)C2)cc1,.,-22,0,.,-1.0,
COc1cc(/C=N/N2CCOCC2)ccc1OCc1ccccc1,0,.,2,3%,3.4,
CC(C)[C@H](NC(=O)c1ccccc1)C(=O)OCC(=O)NCCc1ccc(F)cc1,-4,-33,-1,0%,3.3,
Cc1c(C(=O)Nc2ccccc2)sc2nc[nH]c(=O)c12,3,-43,1,-8%,5.5,
O=C(CSc1nc2ccccc2n1CC(=O)N1CCOCC1)N1CCCC1,-6,-9,-2,-10%,-2.9,
CC(C)CC(=O)Nc1ccc(-c2cn3ccsc3n2)cc1,1,-22,-28,-2%,.,
CCCCC(=O)Nc1ccc(C(=O)NNC(=S)NC(=O)c2cccs2)cc1,73,-20,-19,?,-2.4,
CC(CN1CCCC1)OC(=O)COc1ccccc1 (configuration not stated),-12,-47,-3,-1%,-2.4,
O=Cc1c(Nc2ccccc2Cl)nc2ccccn2c1=O,-1,.,.,.,1.8,
CCOC(=O)C(NC(=O)NCc1ccc(OC)cc1)(OCC)C(F)(F)F (configuration not stated),0,-19,-4,-1%,-3.2,
Cc1ccc(NC(=O)C[n+]2ccn(C3=C([O-])c4ccccc4C3=O)c2)cc1,0,.,3,4%,2.5,
CC1(N2CCOCC2)C(=O)c2ccccc2C1=O,-7,-7,-3,7%,-4.4,
C/C(Cc1ccccc1)=N\NC(=O)c1ccccn1,100,.,.,.,-6.1,
O=[N+]([O-])c1cccnc1N1CCN(Cc2ccc3c(c2)OCO3)CC1,4,.,.,.,3.3,
O=C1C(=O)N(CCCN2CCOCC2)C(c2ccc(Cl)cc2)/C1=C(/O)c1ccc(F)cc1 (configuration not stated),-1,.,.,.,-1.6,

# 4 structures already listed, sorted by length of the SMILES, rising:
SMILES,Mtb betalactam,YopH inh,Arbovirus inh,Mtb growth,RecA intein inh,others
C/C(Cc1ccccc1)=N\NC(=O)c1ccccn1,100,.,.,.,-6.1,
CC(C)CC(=O)Nc1ccc(-c2cn3ccsc3n2)cc1,1,-22,-28,-2%,.,
CCOC(=O)C(NC(=O)NCc1ccc(OC)cc1)(OCC)C(F)(F)F (configuration not stated),0,-19,-4,-1%,-3.2,
O=[N+]([O-])c1cccnc1N1CCN(Cc2ccc3c(c2)OCO3)CC1,4,.,.,.,3.3,

# (continued)
SMILES,Mtb betalactam,YopH inh,Arbovirus inh,Mtb growth,RecA intein inh,others
COc1ccc(N2C(=O)Cc3c2nc(N)c(C#N)c3N)cc1,8,.,.,-13%,0.7,
O=C(NCC1CCCO1)c1cccc(F)c1 (configuration not stated),-9,-50,5,-11%,-0.8,
Cc1ccc(C2CCN(C(=S)NC(C)C)C2)cc1 (configuration not stated),-2,.,2,4%,-0.1,
Brc1cccc(CNCc2ccncc2)c1,3,.,.,.,-0.2,
[N-]=[N+]=NCCN1CCN(CCc2ccccc2)CCC1=O,-6,.,.,.,3.6,
CC(C)CCCN1C(Nc2ccccc2)=NC[C@@H]1C,-7,.,.,.,-1.3,
c1ccc(C2=Nn3c(nnc3-c3n[nH]c4c3CCC4)SC2)cc1,60,-1,-25,9%,-2.5,
c1ccc2nc(-c3nc4ccccc4[nH]3)ccc2c1,94,-28,-11,19%,0.5,
Cc1ccc(S(=O)(=O)NCc2ccc(/C=C(/C#N)C(=O)NCc3ccccc3)o2)cc1,2,-50,-4,14%,-0.2,
N#CCOc1coc(CN2CCN(c3cccc(Cl)c3)CC2)cc1=O,2,.,.,.,0.0,
COc1ccc(-c2cc(C(=O)Nc3cc(OC)cc(C(=O)Nc4cccc(C(F)(F)F)c4)c3)[nH]n2)cc1,63,.,.,-4%,2.4,
CSc1nc2ncc(-c3ccsc3)c(N)n2n1,-2,.,-2,-4%,-1.0,
CCN(CC)CCCN1CC(=O)N2[C@@H](Cc3c([nH]c4ccccc34)C2(C)C)C1=O,-6,.,.,.,-0.1,
COC(=O)[C@H](C)NC(=O)Nc1ccc(C)c(C)c1,-11,-1,8,2%,0.7,
Cc1cccc(N2C(=O)C3C4CC(=O)C(c5ccccc54)C3C2=O)c1C (configuration not stated),-6,.,4,-10%,-2.5,
CCCCCCSc1cc(-c2nc3cnccn3c2NCc2ccccc2)ccc1OC,59,.,.,.,-48,
COCCn1c(SCC(=O)N2CCCCC2)nc2c([nH]c3ccccc32)c1=O,9,.,.,.,-5.3,
COc1ccc(CCN=C(N)NS(=O)(=O)c2cc(F)ccc2OC)cc1,-9,.,.,.,-1.3,
COc1cc(OC)cc(C(=O)NNC(=O)C2CCCC2)c1,2,.,.,.,-0.7,
Cc1ccccc1Cn1c(=O)n(CCC(=O)NCc2ccc3c(c2)OCO3)c(=O)c2ccccc21,-1,-35,-11,-7%,1.3,
CN(C)CCN(Cc1ccccc1)C(=O)C1CCN(c2ncnc3c2nc2n3CCCCC2)CC1,-7,.,.,.,-5.9,
O=C(Nc1cccc(Cl)c1)/C(=C\c1cccnc1)NC(=O)c1ccco1,-3,.,-8,3%,1.9,
N#C/C(=C(\O)CCl)c1nnc2n1CCCCC2,52,-12,0,5%,4.1,
Cc1ccnc2nc(C(=O)OCC(=O)N(CC(C)C)CC(C)C)nn12,-10,.,5,1%,1.0,
COc1ccc(-c2nc3cnccn3c2Nc2ccc(C)cc2)cc1,7,-35,-39,15%,-2.5,
CCCN1C(=O)c2cc(C(=O)Nc3cccc(C(C)=O)c3)ccc2C1Nc1cccc(C(C)=O)c1 (configuration not stated),-6,.,.,5%,1.1,
C=C(C)c1cccc(C(C)(C)NC(=O)Nc2ncccn2)c1,0,-15,-2,8%,-3.8,
O=C(N/N=C/c1c(O)n(-c2ccc(Cl)cn2)c(=O)c2ccccc12)c1ccncc1,4,9,27,?,-48,
CCCn1c(SCC(=O)NNC(=O)c2ccccc2)nnc1-c1cccnc1,-1,.,.,-7%,-0.8,
Cc1cc(C)c(OCCCON2C(=O)CCC2=O)c(Br)c1,-8,.,0,5%,-0.3,
O=C(Cc1ccc(Cl)cc1)Nc1ccc(Br)cn1,3,.,.,.,-1.4,
CC(C)Nc1nc(NC(N)=S)nc(NC(C)C)n1,-1,-22,-2,4%,1.7,
Cc1c(C(=O)N(C)C2CC(C)(C)NC(C)(C)C2)oc2c(F)cccc12,-4,.,.,.,2.7,
CCOC(=O)NC(=O)CSc1nnnn1-c1ccc(Cl)cc1,3,37,-2,-22%,4.2,
COc1ccc(OC)c(C2C(C(C)=O)=C(O)C(=O)N2c2ccc(O)cc2)c1 (configuration not stated),-16,-22,0,-6%,-2.1,
Clc1ccc(Cn2ncc3c(N4CCCCC4)ncnc32)cc1,4,-22,-8,7%,6.6,
COc1ccc(/C=C/C(=O)NCC(=O)N/N=C/c2ccc(OC)cc2)cc1,3,.,9,-3%,-0.5,
Cn1c(NCCO)nc2c(c1=O)C1(CCCCC1)Cc1ccccc1-2,0,-5,-2,6%,5.0,Arbovirus inh repeat=-15
COc1ccc(C2OC3=C(Nc4cc(C)c(C)cc4N3)C2=O)cc1 (configuration not stated),-6,.,.,-6%,1.7,
O=C(Nc1ccc(OCc2ccccc2)cc1)c1cccs1,-5,.,.,.,2.2,
O=C(NCCc1ccccc1)c1ccc2c(c1)S(=O)(=O)c1ccccc1C2=O,-6,.,.,-4%,-1.4,
CC(C)c1ccc(-c2nc(N3CCCCCC3)nc3n[nH]c(N)c23)cc1,-4,-14,-3,-1%,-0.9,
Cc1nnc(SCC(=O)NCc2ccco2)n1-c1ccccc1,0,22,-1,-6%,-2.5,
CCc1oc(C(=O)O)cc1CN(CC)CC,-4,0,2,-5%,-1.9,
CC(C)N(C(=O)CN(C#N)c1nc(N(C)C)nc(N(C)C)n1)c1ccccc1,0,-30,5,-1%,0.9,Arbovirus inh repeat=1
COc1ccccc1CNC(=O)C1CCN(S(=O)(=O)c2ccc3c(c2)CC(C)N3C(C)=O)CC1 (configuration not stated),3,.,.,.,9.6,
COc1ccc(-c2nn(CCC#N)cc2C(=O)NCc2ccccc2)cc1OC,0,.,.,.,0.6,
CN(C)c1ccc(/C=C(\C#N)C(=O)c2ccccc2)cc1,3,.,.,-1%,-1.2,
Cc1nn(CC(=O)NCCCN2CCCCC2)c(=O)c2cc(-c3ccccc3)nn12,-4,.,.,.,-2.1,
O=C(CNC1CCCCCC1)Nc1ccccc1N1CCOCC1,-5,.,8,1%,-2.5,

# (further entries)
SMILES,Mtb betalactam,YopH inh,Arbovirus inh,Mtb growth,RecA intein inh,others
O=C(O)c1cc(/C=N\O)ccc1OCc1ccccc1,-5,-10,-1,-7%,0.3,
COc1ccc2cc(C(=O)C3CCCN(C(=O)CCc4cnn(C)c4)C3)ccc2c1 (configuration not stated),-5,.,0,0%,-1.7,
COc1ccc(Nc2nc(-c3ccccc3)c(C(=O)Nc3cccnc3)s2)cc1,2,.,-4,15%,-1.7,
CCOc1cccc(NC(=O)c2ccc(S(=O)(=O)N(C)C)cc2)c1,1,-32,-4,8%,.,Arbovirus inh repeat=1
COCCCNC(=O)Cn1c(=O)oc2cc(S(=O)(=O)N3CC(C)CC(C)C3)ccc21 (configuration not stated),1,.,.,.,-2.0,
O=S1(=O)N=C(Nc2ccc(N3CCOCC3)cc2)c2ccccc21,0,-33,-3,6%,-5.6,
CCN(CC)C(=S)NC(=O)c1ccc(Cl)cc1Cl,74,1,-4,?,-2.4,
O=C(COc1ccc(F)cc1)Nc1ccccc1N1CCOCC1,-2,.,.,.,-0.9,
COc1ccc(C(=O)C/C(=C\C(=O)c2ccc(C)cc2)c2ccccc2)cc1,-6,-2,-18,-20%,3.7,
CCN(CC)S(=O)(=O)c1ccc(NS(=O)(=O)c2ccc(OC)c([N+](=O)[O-])c2)cc1,-3,-32,4,3%,-4.4,
NNC(=S)NC1CC2CC1C1C=CCC21 (configuration not stated),.,.,.,-3%,1.3,
